Six1-Eya2 blk: inhibitors of human Six1/Eya2 interaction | Q15475+O00167 | AlphaScreen GST-Six1/His-Eya2 binding, biochemical; stronger effect = lower value; control for the full effect not named in the record | activity change, % (test concentration not listed) | 0.56% of 360,000 active; in the data active = activity change below about -65%; inconclusive = about -30% to -65%; inactive = above about -30%; note: % is set by controls: 0 for no effect and ±100 for the full control effect; compound concentration not given in the record
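Compounds are tested against tagged Six1 and Eya2 proteins bridged by glutathione donor and nickel acceptor beads; after a one-hour incubation at 37 °C without light, AlphaScreen emission is recorded.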
gsp ag: agonists of gsp mutant (McCune-Albright syndrome) | gsp mutant cells, cAMP HTRF, 30 min; control for the full effect not named in the record | Potency, µM (top dose mostly 76.9 µM), for inactives: top-dose activation (cAMP increase), hits mostly activators | 0.13% of 340,000 active; active = well fitted activation curve with a large enough effect; inconclusive = small, poorly fitted or top-dose-only effect, or another doubt; inactive = no such curve, though single readings can be large or run the other way; cell line not stated here;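 note: phosphodiesterase inhibitor Ro 20-1724 added with compounds to block cAMP breakdown; potency is the fitted concentration of half-maximal effect; nearly all actives have a fitted effect of over 60% in size; about a fifth of the inactives were tested at one dose only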
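Cells in DMEM/10% FBS with G418 were pretreated with compounds in DMSO plus […] (300 uM stock) for 30 min at 37C. cAMP was measured by HTRF (cAMP-d2 plus anti-cAMP antibody-K) after 30 min at room temperature.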
D2 agonist: human D2 receptor agonism in beta-arrestin assay. P14416. DiscoveRx PathHunter D2 beta-arrestin, luminescence, 90 min; 100% = 57 uM dopamine signal. activation, % (no concentration beside the values). 0.084% of 360,000 active; in the data active = activation above about 40%; inconclusive = about 15% to 40%; inactive = below about 15%; note: compound concentration not given in the record; the text of the record calls up to 30% inactive
Target sequence (P14416 whole entry, looked up): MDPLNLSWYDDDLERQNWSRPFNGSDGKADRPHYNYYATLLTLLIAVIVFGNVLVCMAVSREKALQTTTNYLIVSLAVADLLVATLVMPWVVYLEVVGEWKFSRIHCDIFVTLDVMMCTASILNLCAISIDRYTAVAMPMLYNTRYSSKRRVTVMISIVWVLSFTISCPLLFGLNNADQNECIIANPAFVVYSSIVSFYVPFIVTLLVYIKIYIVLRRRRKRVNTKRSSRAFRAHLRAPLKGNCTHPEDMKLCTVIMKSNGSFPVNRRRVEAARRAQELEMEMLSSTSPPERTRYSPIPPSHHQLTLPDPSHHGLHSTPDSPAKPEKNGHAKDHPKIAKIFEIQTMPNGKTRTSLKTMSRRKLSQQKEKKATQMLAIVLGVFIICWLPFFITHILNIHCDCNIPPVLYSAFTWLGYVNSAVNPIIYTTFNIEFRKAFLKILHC
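Agonist mode: compounds alone added to overnight-plated D2 PathHunter cells for 90 min at 37 C, with 57 uM final dopamine (EC100) defining full response. Beta-arrestin recruitment detected by chemiluminescent reagent, read after 1 h at ambient temperature.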
CtBP-E1A blk: CtBP/E1A binding inhibition; AlphaScreen GST-E1A/His-CtBP binding, 1536-well; stronger effect = lower value; control for the full effect not named in the record; activity change, % (concentration not given with the values); 0.49% of 340,000 active; AID 651724; in the data active means activity change below about -65%; inconclusive means about -30% to -65%; inactive means above about -30%; note: % is set by controls: 0 for no effect and ±100 for the full control effect
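GST-E1A and His-tagged CtBP (125 nM each as 5X stock) were preincubated with pin-transferred compound for 2 h at 37 °C in the dark, then glutathione donor and nickel acceptor beads were added for 1 h before AlphaScreen reading.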
D2 PAM: positive allosteric modulators of human D2 dopamine receptor; DiscoveRx D2 beta-arrestin cells, luminescence, 90 min; 100% = 57 uM dopamine signal; potentiation, % (concentration not given with the values); 0.23% of 360,000 active; active = potentiation of 50% or more; inconclusive = 30% to 50%; inactive = 30% or less;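 note: compound concentration not given in the record; tested on top of an EC20 dose of dopamine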
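PathHunter beta-arrestin assay in DiscoveRx D2 cells. Compounds were added with an EC20 of dopamine (50 nM final) for 90 min at 37 deg C. Luminescence was read 1 h after detection reagent, with 57 uM dopamine as the EC100 control.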
gsp antagonist: antagonists of gsp mutant (McCune-Albright syndrome); gsp-mutant cells, cAMP HTRF, 30 min; control for the full effect not named in the record; Potency, µM (top dose mostly 76.9 µM), without a hit: at the top dose activity change, negative = inhibition, actives largely listed as inhibitors; 0.4% of 340,000 active; AID 624288; active = falling curve of any shape with a large fitted effect; inconclusive = falling curve, mostly with a smaller effect; inactive = flat or rising curve; cell line not stated here;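 note: intracellular cAMP measured with PDE inhibitor Ro 20-1724 present during compound exposure; potency is the fitted concentration of half-maximal effect; % is set by controls: 0 for no effect and ±100 for the full control effect; nearly all actives have a fitted effect of over 65% in size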
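Measurement of cellular cAMP by homogeneous time-resolved fluorescence following a 30 min compound exposure at 37C. The PDE inhibitor […] was present throughout; the assay buffer was DPBS with 0.05% BSA and 0.005% Tween 20.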
The depositor's hits bear a star; ? = inconclusive; . = no result given; [ ] = remark or other dose.

The first 4 compounds, ahead of the listing:
1. CC1(C(=O)NCc2ccc(C(F)(F)F)cc2)CCN1Cc1cc2ccccc2o1 (centres undefined)
2. CC(C)NS(=O)(=O)c1ccc(NC(=O)C(C)OC(=O)C2CCC2)cc1 (centres undefined)
3. CCCCC(C)n1[nH]c(=O)c2c(C)cc(C)nc21 (centres undefined)
4. CCCNc1ncnc2sc(C)c(C)c12

compound no.	1	2	3	4
Six1-Eya2 blk	-4.0	6.0	0.0	-7.8
gsp ag	.	-11.9%	-1.0%[15.4 µM]	-30.9%[inhibitor]
D2 agonist	-4.5	-0.6	1.4	-6.7
CtBP-E1A blk	-1.9	.	0.0	-3.0
D2 PAM	-5.0	5.2	-2.0	-18.4
gsp antagonist	.	8.5%	-1.7%	5.9%[15.4 µM]

The whole of this part (from the top)
1. CC1(C(=O)NCc2ccc(C(F)(F)F)cc2)CCN1Cc1cc2ccccc2o1 (centres undefined)
2. CC(C)NS(=O)(=O)c1ccc(NC(=O)C(C)OC(=O)C2CCC2)cc1 (centres undefined)
3. CCCCC(C)n1[nH]c(=O)c2c(C)cc(C)nc21 (centres undefined)
4. CCCNc1ncnc2sc(C)c(C)c12
5. Cc1[nH]c2ccccc2c1C(=O)CSC(=S)N1CCOCC1
6. O=C(c1ccccc1Cl)N(Cc1ccc(Cl)c(Cl)c1)N1C(=O)CCCC1=O
7. CCCCCn1c(=O)[nH]c2cc(C(=O)NCCCN(CC)CC)ccc2c1=O
8. NS(=O)(=O)c1ccc(CNC(=O)c2ccc3c(c2)OCO3)cc1

compound no.	1	2	3	4	5	6	7	8
Six1-Eya2 blk	-4.0	6.0	0.0	-7.8	-4.3	-1.3	-2.2	3.5
gsp ag	.	-11.9%	-1.0%[15.4 µM]	-30.9%[inhibitor]	-1.3%[15.4 µM]	7.1%	-19.7%	5.9%
D2 agonist	-4.5	-0.6	1.4	-6.7	-0.7	-3.5	-2.5	-4.3
CtBP-E1A blk	-1.9	.	0.0	-3.0	-0.4	-1.8	-1.1	.
D2 PAM	-5.0	5.2	-2.0	-18.4	0.2	-11.3	-22.3	3.8
gsp antagonist	.	8.5%	-1.7%	5.9%[15.4 µM]	-18.8%	-10.0%	12.6%	2.4%

9. Oc1ccccc1-c1n[nH]c(=S)n1Cc1ccccc1
10. O=Cc1cn(CC(=O)NCC2CCCO2)c2ccccc12 (centres undefined)
11. COc1ccc(OC)c(Cc2nnc(CCC(=O)NC(C3CC3)C3CC3)o2)c1
12. Cc1ccc(NC(=O)CCN2CCC(C)CC2)cc1
13. C[C@H]1O[C@@H](O[C@H]2CC[C@@]3(C)C(CC[C@]4(C)C3C=CC3=C5CC(C)(C)CC[C@]5(CO)[C@H](O)C[C@]34C)[C@]2(C)CO)[C@H](O)[C@@H](O[C@@H]2O[C@H](CO)[C@@H](O)[C@H](O)[C@H]2O)[C@H]1O (some centres undefined)
14. CCN(CC)c1cc(Cl)nc(N)n1
15. O=C(O)c1ccc(NC(=O)c2ccccc2Br)c(NC(=O)c2ccccc2Br)c1
16. CC1(NC(=O)CCc2nc3sc4c(c3c(=O)[nH]2)CCCC4)CCS(=O)(=O)C1 (centres undefined)

compound no.	9	10	11	12	13	14	15	16
Six1-Eya2 blk	-4.5	2.7	6.6	5.6	-1.1	0.5	-0.5	-16.7
gsp ag	-2.9%[15.4 µM]	13.4%	8.8%[15.4 µM]	-17.6%	.	-6.7%	-19.6%	-7.8%[15.4 µM]
D2 agonist	-2.5	0.0	-4.6	-0.9	0.0	-2.7	-2.0	1.0
CtBP-E1A blk	-0.7	-1.0	1.7	6.3	0.3	.	.	2.9
D2 PAM	-8.4	2.6	-5.2	-11.0	-34.3	-2.3	-8.0	-6.8
gsp antagonist	8.3%	-3.5%	9.9%	9.3%	-3.4%	-1.3%	2.2%	-7.2%

17. Cc1cc(NC(=O)CSc2nnc(-c3ccco3)n2Cc2ccco2)no1
18. C#CCOCCOCCOCCNc1nc(N2CCN(C(=O)[C@H]([C@@H](C)CC)n3cc([C@@H](N)CO)nn3)CC2)nc(N2CCN(C(=O)[C@H](Cc3ccc(O)cc3)n3cc([C@@H](N)CC(C)C)nn3)CC2)n1
19. O=C(CNc1cccc(S(=O)(=O)N2CCOCC2)c1)Nc1ccccc1F
20. COc1ccccc1C(=O)/C=C/c1ccc(N2CCCCC2)c([N+](=O)[O-])c1
21. Cn1nc(C(F)(F)F)c(/C=N/OCc2c(Cl)cccc2Cl)c1Cl
22. Cc1ccc2nc(CCc3ccc(N)cc3)[nH]c2c1
23. O=C(NC1CCCC1)c1ccc(CS(=O)(=O)Cc2ccccc2Cl)o1
24. CCOc1ccc(CN(C)C(=O)c2cc(S(=O)(=O)N3CCCC3)ccc2C)cc1

compound no.	17	18	19	20	21	22	23	24
Six1-Eya2 blk	-4.0	-13.2	-1.6	-2.3	6.9	-19.1	-2.0	4.2
gsp ag	-23.0%	-18.8%	-14.4%	6.5%	6.4%	9.0%[15.4 µM]	-39.5%[inhibitor]	-5.8%
D2 agonist	-2.4	-2.3	-4.6	-5.0	-1.5	-0.3	-3.1	0.4
CtBP-E1A blk	1.9	-16.1	-17.1	0.0	8.2	-0.2	-3.0	1.6
D2 PAM	-6.9	-11.8	-5.3	-19.8	0.1	-8.3	-0.2	-0.8
gsp antagonist	-2.4%	11.7%	7.9%	-12.0%	-7.7%	-2.7%	-13.3%	-10.9%

Full records, quoted from the list. Values in the order: Six1-Eya2 blk	gsp ag	D2 agonist	CtBP-E1A blk	D2 PAM	gsp antagonist
`CCOc1ccc(CN(C)C(=O)c2cc(S(=O)(=O)N3CCCC3)ccc2C)cc1` is listed with 4.2	-5.8%	0.4	1.6	-0.8	-10.9%
`C#CCOCCOCCOCCNc1nc(N2CCN(C(=O)[C@H]([C@@H](C)CC)n3cc([C@@H](N)CO)nn3)CC2)nc(N2CCN(C(=O)[C@H](Cc3ccc(O)cc3)n3cc([C@@H](N)CC(C)C)nn3)CC2)n1` is listed with -13.2	-18.8%	-2.3	-16.1	-11.8	11.7%

Next part:
25. COc1ccccc1C(=O)Nc1ccccc1SC
26. O=S(=O)(Nc1ccccc1)C1CCCCC1
27. CCc1nnc(NC(=O)CSc2nc3c(c(=O)n2CC)SC(C)C3)s1 (centres undefined)
28. Cc1cccc(C)c1Cn1c(C)c(C(=O)NCc2ccc(C#N)cc2)sc1=O
29. Cc1ccc(S(=O)(=O)Nc2cccc(-n3cnnn3)c2)cc1C
30. O=C(NCc1ccco1)c1cc(-c2ccccc2)nn1CC1CC(c2cccc([N+](=O)[O-])c2)=NO1 (centres undefined)
31. N/C(=N\OC(=O)CC1CCCCC1)c1ccncc1
32. Cc1ccc(CNC(=O)c2cc(=O)c3cc(C)ccc3o2)cc1

compound no.	25	26	27	28	29	30	31	32
Six1-Eya2 blk	12.9	13.9	-0.1	0.2	0.7	-25.2	3.4	0.6
gsp ag	-10.7%	?	?	.	21.5%	.	15.4%	-19.4%[15.4 µM]
D2 agonist	-2.7	-0.3	-3.6	-1.5	0.7	5.3	3.1	-3.7
CtBP-E1A blk	19.7	21.6	0.1	-20.5	0.7	-2.1	-2.2	7.5
D2 PAM	-14.0	-7.3	-0.4	-4.0	-3.4	-5.4	2.3	0.5
gsp antagonist	-18.7%	-1.4%	1.0%	.	-2.1%	?	10.4%	9.4%

33. Cc1ccccc1OCC(=O)Nc1ccc(C)c(S(=O)(=O)N2CCCCCC2)c1
34. Cn1c(=O)c2c(nc(Br)n2CCc2ccccc2)n(C)c1=O
35. Cc1ccc(NC(=O)CNS(=O)(=O)c2ccc(F)cc2)cc1C
36. COc1cc(NC(=O)N2CCNC2=O)cc(C(=O)Nc2cccc(C(F)(F)F)c2)c1
37. COc1ccc(/C=C/c2nc(N)nc(-c3ccccc3O)n2)cc1OC
38. CC(SCC(=O)Nc1ccccc1)c1nc2ccccc2c(=O)[nH]1 (centres undefined)
39. Cc1ccc2nc3n(c(=O)c2c1)-c1ncccc1C(=O)NC3Cc1ccccc1 (centres undefined)
40. CCCCNC(=O)COC(=O)c1cc(C)oc1C

compound no.	33	34	35	36	37	38	39	40
Six1-Eya2 blk	7.4	?	6.2	-5.9	-16.1	22.5	-6.3	-2.1
gsp ag	-8.1%	2.7%	1.3%	.	0.7%	-4.3%	?	?
D2 agonist	-3.3	-0.8	-4.4	1.0	6.1	-8.2	-8.1	2.0
CtBP-E1A blk	-24.4	?	.	-3.6	-13.2	0.0	-2.5	0.0
D2 PAM	-1.2	-0.9	-17.7	-11.1	0.9	-28.0	-1.3	-0.8
gsp antagonist	-26.6%	-0.3%	6.5%	16.4%	-1.4%	-2.0%	.	8.6%

41. CCSc1ccc([C@@H]2[C@H]3C(=O)N(CC)C(=O)[C@H]3[C@]3(C(=O)OC)CCCCN23)cc1OC
42. COc1ccc(N2CCN(C(=O)CN(CCc3ccccc3)S(C)(=O)=O)CC2)cc1
43. CC(C)N(Cc1nccn1C)C(=O)c1cc(COc2ccc(-n3cncn3)cc2)on1
44. Cc1[nH]c2ccc(C(=O)NCCCN3CCN(C)CC3)cc2c1C
45. C=CCn1c(=O)c(C(=O)Nc2ccccc2S(N)(=O)=O)c(O)c2ccccc21
46. COc1ccc(N(CC(=O)NC2CCCC2)C(=O)Cn2nnc(-c3ccc(F)cc3)n2)cc1OC
47. NC(=O)C1CCN(C(=O)C2CCC(=O)N(C3CCCCCC3)C2)CC1 (centres undefined)
48. O=C(c1ccccc1NS(=O)(=O)c1ccc(Br)s1)N1CCCC1

compound no.	41	42	43	44	45	46	47	48
Six1-Eya2 blk	-20.5	-7.2	0.0	-1.2	-0.2	1.8	7.8	15.2
gsp ag	4.4%	-43.9%[inhibitor]	?	-7.4%	0.3%[15.4 µM]	-11.0%	-14.7%	6.4%
D2 agonist	-0.1	1.0	3.8	-2.1	0.3	0.3	0.4	0.9
CtBP-E1A blk	.	10.3	2.5	0.3	-1.0	1.7	0.0	5.2
D2 PAM	3.1	-10.1	-13.0	-18.9	8.5	3.4	-26.4	0.3
gsp antagonist	-17.7%	-22.9%	-25.2%	-9.7%	-7.1%	6.1%	8.7%	-2.4%

49. O=C(NNc1cc(Cl)cc(Cl)c1)c1cccs1
50. Cc1ccc(CSCC(=O)NCc2ccc(F)cc2)cc1
51. CN(CC(=O)Nc1ccccc1C(F)(F)F)C(=O)CSCc1ccc(Cl)c(Cl)c1
52. CCOc1nc(C)cc(COC)c1C(N)=O

compound no.	49	50	51	52
Six1-Eya2 blk	3.8	2.9	2.6	4.9
gsp ag	-9.7%	-0.2%[15.4 µM]	18.7%[15.4 µM]	-8.9%[15.4 µM]
D2 agonist	-8.0	-4.4	-2.8	-3.4
CtBP-E1A blk	0.4	13.6	7.7	-8.5
D2 PAM	-15.2	-9.0	-1.6	-5.9
gsp antagonist	-10.5%	3.2%	-12.7%	19.5%
